High-throughput results deposited in PubChem BioAssay by several laboratories.
RecA intein inh = Mtb RecA intein splicing inhibitors, primary screen, biochemical, fluorescence, HTS | 290,000 compounds, 0.75% hits | cell-free RecA intein splicing | AID 2221, 2009 | inhibition, %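 (about 9 µM by stock and volumes)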; in the data active means inhibition above about 30%; inconclusive means no clear call, values can overlap the other calls;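 further: 0% = vehicle wells and 100% = reference inhibitor control wells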
Target sequence (P9WHJ3 whole entry, looked up): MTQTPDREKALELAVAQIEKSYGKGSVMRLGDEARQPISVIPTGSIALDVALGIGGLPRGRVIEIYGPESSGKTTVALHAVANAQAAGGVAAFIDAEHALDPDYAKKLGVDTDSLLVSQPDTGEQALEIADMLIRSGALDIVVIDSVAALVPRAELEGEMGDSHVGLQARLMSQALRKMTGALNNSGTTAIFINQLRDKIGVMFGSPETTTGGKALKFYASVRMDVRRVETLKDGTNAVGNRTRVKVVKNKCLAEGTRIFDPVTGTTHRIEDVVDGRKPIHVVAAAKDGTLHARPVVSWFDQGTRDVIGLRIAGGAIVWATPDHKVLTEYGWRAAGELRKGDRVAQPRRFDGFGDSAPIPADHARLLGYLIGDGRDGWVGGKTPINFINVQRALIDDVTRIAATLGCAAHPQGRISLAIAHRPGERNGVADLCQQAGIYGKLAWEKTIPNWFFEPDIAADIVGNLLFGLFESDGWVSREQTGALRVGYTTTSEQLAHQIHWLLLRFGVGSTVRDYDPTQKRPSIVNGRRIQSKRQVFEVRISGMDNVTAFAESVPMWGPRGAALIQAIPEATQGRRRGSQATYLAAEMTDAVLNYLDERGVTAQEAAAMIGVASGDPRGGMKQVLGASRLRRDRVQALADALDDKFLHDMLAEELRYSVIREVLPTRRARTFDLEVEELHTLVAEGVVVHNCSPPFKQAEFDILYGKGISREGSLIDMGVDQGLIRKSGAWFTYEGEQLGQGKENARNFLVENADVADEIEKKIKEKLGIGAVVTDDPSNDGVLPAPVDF
Mtb bLac sens = beta-lactam sensitization of Mtb H37Rv, H37Rv. 330,000 compounds, 0.27% hits. AID 434955, 2010. inhibition, % at 25 µM. M. tuberculosis H37Rv growth with meropenem, percent inhibition; hits of this screen are not shown here;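 active means about 74% or more and at least 40 points above the plate without the antibiotic, then above 30% in a dose series; inconclusive means first-round hits that could not be retested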;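 further: growth measured after seven days incubation then overnight dye step; 0% = bacteria only wells and 100% = bacteria with antibiotic; twin plates without the antibiotic show which effects depend on it; some results filed as inactive read as strong as hits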
Arbovirus inh = antivirals against arbovirus infection, primary screen, cell-based, full library, 10K replicate subset. 200,000 compounds, 0.37% hits. arbovirus infection cell-based antiviral screen. inhibition, % at 10 µM. AID 1251, 2008;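 active means inhibition from about 30%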;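 further: bluetongue infection of BSR cells; cell survival read as ATP light after 72 h; 0% = infected wells without compound and 100% = uninfected wells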
YopH PTP inh = YopH tyrosine phosphatase inhibitors, primary screen, biochemical, fluorescence Ex485/Em525; 140,000 compounds, 0.16% hits; inhibition, %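 (about 10 µM by stock and volumes)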; YopH tyrosine phosphatase [Yersinia enterocolitica];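 active means inhibition of 50% or more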;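 further: controls were vehicle for no effect and minimum signal wells for full effect; inactives centre near -20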
Mtb growth = M. tuberculosis H37Rv growth inhibitors, H37Rv strain (AID 1626); one-dose inhibition, % at 10 µM; IC50 in µM for titrated hits; 220,000 compounds, 0.95% hits; M. tuberculosis H37Rv growth inhibition; higher % means a stronger effect;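 active means confirmed in a dose series; inconclusive means inhibition above 80% but not taken into the dose series; inactive means below 80% or under 30% at every dose of the series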;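 further: bacteria incubated seven days before Alamar blue readout; 0% = bacteria only wells and 100% = bacteria with antibiotic wells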
Arbovirus inh repeat = also measured in Arbovirus inh; calls as there; inhibition, %; measured here: 10K subset replicate screen; many hits read low in the repeat;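 first of two repeat runs on a subset; 0% = infected and 100% = uninfected wells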
Numbers without * were called inactive; ? = inconclusive; / = not tested or not shown; & = joins results of further samples. These rows are one share of the data (hit frequency here may not be typical).

SMILES	RecA intein inh	Mtb bLac sens	Arbovirus inh	YopH PTP inh	Mtb growth	others
Cc1ccc2c(c1)C(O)(CC(=O)c1ccc3c(c1)OCO3)C(=O)N2 (centres undefined)	-2.5	5.7	2.0	-22.8	-9.5%
COc1ccc(-c2ccc(-c3noc(-c4ccccc4F)n3)c(OC)n2)cc1	0.9	/	-5.0	5.6	-6.7%
O=C(/C=C/Nc1ccc(F)cc1F)c1ccc(Br)cc1	2.3	-0.1	/	/	/
O=C(NNC(=O)c1cc(Br)c(Br)s1)c1csc(N2CCOCC2)n1	-1.0	-1.0	/	/	/
COc1ccccc1NC(=O)c1ccc(NC(=O)CN2CCCC2)cc1	1.3	-6.3	3.9	/	0.0%
Cc1nn(C)c(C(=O)NNC(=S)NCc2ccco2)c1Br	3.1	-0.4	7.4	/	1.5%
O=C(CC12CC3CC(CC(C3)C1)C2)N/N=C\c1ccc[nH]1	2.5	-15.8	1.0	/	-1.1%
CN(C)c1ccc(C(CNS(=O)(=O)c2cccc([N+](=O)[O-])c2)N2CCOCC2)cc1 (centres undefined)	-1.5	-5.2	/	/	/
O=C(CN1CCN(c2ccccc2F)CC1)Nc1ccc2c(c1)CCC2	6.5	-4.5	3.9	-9.4	40.2%
CC[n+]1c(/C=C/c2ccc(N(C)C)cc2)ccc2ccccc21	4.4	90.4	-25.1	18.2	10.9%
COc1ccc(C(=O)C2CCCN(Cc3cnc(C)s3)C2)c(OC)c1 (centres undefined)	0.0	-7.7	6.3	/	1.5%
CCN(CC)S(=O)(=O)c1ccc2c(c1)N(CC(=O)N(CCc1ccncc1)C(C)C)C(=O)CO2	-1.9	-1.7	5.8	/	-2.9%
CCOc1ccccc1NC(=S)N1CCN(c2nc(-c3cccc(OC)c3)cs2)CC1	1.7	-0.6	-3.4	/	-8.7%
Cc1ccc(O)c(C(=O)CC(=O)c2ccc(Cl)cc2)c1	2.1	99.5	/	/	/
CCOC(=O)c1cc(C(O)(C(=O)OC)C(F)(F)F)c(/N=C/N(C)C)o1 (centres undefined)	-1.2	-2.3	2.5	-6.7	2.0%
Cn1cc(/C=C/C(=O)N2CCCC(C(=O)c3cccc4ccccc34)C2)cn1 (centres undefined)	-0.7	-3.9	/	/	-2.9%
Cc1nn(CCC(N)=O)c2nc(-c3cccs3)cc(C(F)(F)F)c12	4.8	4.9	-7.2	-30.5	1.2%
CCC1C(=O)NCCN1C(=O)c1cc(COc2cc(C)ccc2C)on1 (centres undefined)	1.2	8.4	/	/	/
CCOC(=O)C1CCN(Cc2nnnn2CCc2ccccc2)CC1	/	1.8	10.8	/	-3.9%
O=C(Nc1cccc(NC(=O)c2sc3ccccc3c2Cl)c1)c1ccco1	9.2	0.0	-6.0	-9.1	6.4%
COc1cccc(C(O)c2nccn2Cc2ccccc2)c1OC (centres undefined)	-0.7	-4.9	/	/	/
CC1(C)CSC(=NCCc2ccccc2)N1	-1.6	-1.3	/	/	/
COc1ccc(N2C(=O)CSC2c2ccc3c(c2)OCO3)cc1 (centres undefined)	-3.4	10.5	2.3	-55.2	9.4%
NS(=O)(=O)c1cccc(NC(=O)CSc2ncnc3ccccc23)c1	11.0	1.1	/	/	/
O=C(CCNS(=O)(=O)c1cccc2nsnc12)NC1CCCc2ccccc21 (centres undefined)	0.9	-11.9	-2.5	-1.3	-1.5%	Arbovirus inh repeat=-0.8
Clc1ccc(C(c2nnnn2C2CCCC2)N2CCN(c3nc4ccccc4s3)CC2)cc1 (centres undefined)	4.7	-14.7	/	-28.4	15.8%
COc1ccccc1CCNS(=O)(=O)c1cn(C)nc1C	1.2	?	/	/	/
COCCCNc1nc(CC(C)C)nc2c1nnn2Cc1ccccc1	-2.2	4.3	/	/	/
Cc1cc(C)c(S(=O)(=O)N2CC=C(c3ccccc3)CC2)c(C)c1	1.7	1.3	/	/	/
COc1ccccc1NC(=S)NC(=O)/C=C/c1ccco1	1.0	1.6	-3.8	1.9	-0.1%
O=C1[C@H]2[C@@H](c3ccc(F)cc3)N3C(=O)N(c4cccc(F)c4)C(=O)[C@@]3(Cc3ccccc3)[C@H]2C(=O)N1C1CCCCC1	-2.4	69.5	/	/	/
COc1ccc(C2C(C(=O)Nc3ccccc3)=C(C)N=C3SCC(=O)N32)cc1 (centres undefined)	2.6	-5.2	-4.2	-48.9	-8.7%
CC(C)/C=C1\CCc2c([nH]c3ccccc23)C1=O	4.1	-0.7	-3.4	/	-0.9%
CN(C)c1cc[n+](Cc2ccccc2)cc1	3.1	-8.9	12.8	-40.5	2.4%
Cc1ccc(Nc2nnc(-c3ccccc3N)o2)cc1C	-6.3	-2.2	/	/	7.9%
COc1ccc(-n2c(O)c(C(C)=Nc3ccc4c(c3)CCC4)c(=O)[nH]c2=O)cc1	-1.3	-6.5	/	/	-4.8%
Cc1nc2nc3c(c(=O)n2[nH]1)CCC3	-1.1	?	5.9	-36.5	7.4%
COc1ccc(S(=O)(=O)n2nc(C)c(S(=O)(=O)N3CCOCC3)c2C)cc1	-2.9	2.0	/	/	/
Cc1ccc(S(=O)(=O)Nc2cc(-c3ccc(Cl)cc3)nn2C)cc1	2.8	-4.8	/	/	1.9%
CC1CN(c2cc(=O)n(-c3ccccc3)c(=O)[nH]2)CC(C)O1 (centres undefined)	8.1	6.4	11.6	-9.2	4.2%
Cc1nc2nc[nH]n2c(=O)c1NC(=O)CC12CC3CC(CC(C3)C1)C2	-2.0&-0.8	-0.5&1.8	1.8&9.2	-13.2&-9.6	-7.7%&-1.5%
Cc1nc(CN2CCN(C(=O)c3ccc(C(C)(C)C)cc3)CC2)cs1	0.4	-5.0	8.5	-4.1	4.3%
Cc1ccc2cc(C)c3nnc(SCc4ccc(C(=O)O)cc4)n3c2c1C	2.0	-2.8	/	/	-1.9%
CCOC(=O)c1cn(CC#N)c2cc(F)c(F)cc2c1=O	-2.9	-7.8	-7.3	/	-2.5%
CCN(CC)CC(O)Cn1c(C)c(-c2ccccc2)c2cc([N+](=O)[O-])ccc21 (centres undefined)	1.0	100.0	/	/	/

Reprinted at random: 4 entries already listed, in no set order.
SMILES	RecA intein inh	Mtb bLac sens	Arbovirus inh	YopH PTP inh	Mtb growth	others
Cc1nc(CN2CCN(C(=O)c3ccc(C(C)(C)C)cc3)CC2)cs1	0.4	-5.0	8.5	-4.1	4.3%
CN(C)c1cc[n+](Cc2ccccc2)cc1	3.1	-8.9	12.8	-40.5	2.4%
COc1ccc(S(=O)(=O)n2nc(C)c(S(=O)(=O)N3CCOCC3)c2C)cc1	-2.9	2.0	/	/	/
CCN(CC)CC(O)Cn1c(C)c(-c2ccccc2)c2cc([N+](=O)[O-])ccc21 (centres undefined)	1.0	100.0	/	/	/

More compounds:
SMILES	RecA intein inh	Mtb bLac sens	Arbovirus inh	YopH PTP inh	Mtb growth	others
O=C(NC1CCCCC1)C1CC(O)CN1C(=O)OCc1ccccc1 (centres undefined)	0.3	0.5	-4.6	-21.5	-9.1%
O=C(NC(c1ccccc1)c1ccccc1)C1CCCN(S(=O)(=O)c2cnc[nH]2)C1 (centres undefined)	0.6	-2.0	19.4	-35.0	-17.8%
O=C(NCC(c1ccco1)N1CCN(c2ccccc2)CC1)C(=O)NC1CCCCC1 (centres undefined)	-3.2	3.2	/	/	/
O=C(NNc1ccccc1Br)C(=O)n1ccc2ccccc21	-5.6	6.5	-28.1	-10.2	71.6%
Cc1ccn2c(-c3csc(NCc4ccccc4)n3)c(C)nc2c1	5.9	83.3	-9.2	-24.4	19.6%
COc1ccc(-c2[nH]c(-c3ccc4c(c3)OCO4)nc2-c2ccccc2)cc1	12.5	40.5	-24.6	-31.1	2.8%
O=C(Nc1cccc(-n2cnnn2)c1)c1cccnc1	-2.7	4.8	/	/	/
COCC(=O)N1CCN(c2cccc(Cl)c2)CC1	-0.5	0.5	3.7	/	2.1%
COC(=O)CSc1nnc(-c2ccc(OC)cc2OC)o1	-1.7	97.8	3.8	-30.7	1.76µM*
COc1ccccc1N1CCN(C(=O)CCC(=O)O)CC1	-1.3	-1.9	13.3	/	-6.9%
CC1Cc2nc(SCC(=O)Nc3ccc4c(c3)OCCO4)n(C)c(=O)c2S1 (centres undefined)	2.3	6.5	10.4	-12.8	-4.4%
CCOC(=O)c1c(C)c(C)n(Cc2ccc(OC)c(OC)c2)c1C	5.9	1.1	1.7	-4.8	8.2%
CC1C/C(=N/O)C(C)CN1 (centres undefined)	0.0	-18.6	2.0	-25.8	-10.5%
CCOC(=O)C1(Cc2cccc(OC)c2)CCN(Cc2ccccc2)CC1	1.2	-2.6	-0.3	/	8.0%
Cc1cccc2c3nc4ccccc4nc3n(C)c12	0.3	-0.6	/	/	/
O=c1cc(-c2ccccc2)cc(-c2ccccc2)n1CCO	-0.5	0.0	/	/	/
CCN(CC)c1ccc(C2C3CCCCC3(O)CCN2CC(=O)Nc2ccccc2)cc1 (centres undefined)	1.9	3.2	-15.7	11.1	0.0%
C[C@H]1CCC[C@]2(C)C[C@H]3OC(=O)C(CN4CCCCCC4)[C@H]3C=C12 (some centres undefined)	-1.2	19.0	/	/	/
N#Cc1cc2c(nc1SCC(=O)N1CCCCC1)CCCC2	-0.1	78.2	4.8	-25.4	5.6%	Arbovirus inh repeat=2.0
NCC(CC(=O)O)C1CCCCC1 (centres undefined)	-0.8	-0.6	3.6	-20.5	1.3%
O=C(CC(c1ccccc1)c1cc(Br)ccc1O)NCCN1CCOCC1 (centres undefined)	1.9	-8.1	5.4	21.2	5.8%
Cc1ccc(C)c(NC(=O)Nc2ccc3c(c2)OCO3)c1	-1.7	1.0	/	/	/
CC(C)Oc1ccc(CC2(CCc3ccncc3)C(=O)NC(=O)NC2=O)cc1	/	-7.5	/	/	-1.5%
CC(=O)n1cc([C@@H]2C=C(C(=O)NCc3ccccc3)O[C@H](OCCCCO)C2)c2ccccc21	5.5	4.2	3.6	/	2.4%
CCC(C)Sc1nc(O)c(Cc2ccccc2)c(=O)[nH]1 (centres undefined)	-6.3	?	-0.5	-11.6	-10.8%
Oc1ccc(/C=N/Nc2nc(-c3ccc(Cl)cc3)cc(C(F)(F)F)n2)cc1	-0.5	15.4	-40.3	-16.7	11.8%
Cc1cccc(C(=O)Nc2ccc(C(=O)N/N=C/c3cccnc3)cc2)c1	0.9	3.5	/	/	/
O=[N+]([O-])c1ccc(Cl)cc1Sc1cccc2cccnc12	-0.2	3.9	-1.0	-15.0	8.6%
CCn1cc(C(=O)NC2CCCCC2)c(=O)c2ccc(C)nc21	0.5	-11.1	2.9	-13.6	19.0%
C=CCNC(=S)NNC(=O)C(CCCC)CC(O)COCC(C)C (centres undefined)	-2.1	-7.9	/	/	-4.8%
S=C(NCC1CCCO1)N1CCN(c2nc(-c3ccccc3)cs2)CC1 (centres undefined)	2.4	11.1	7.0	/	-6.0%
Cc1ccc(Oc2cc(NC(=O)CCCn3nc(C)c([N+](=O)[O-])c3C)cc([N+](=O)[O-])c2)cc1	2.3	100.0	-2.5	-29.5	2.33µM*
CC(C)(C)N1C(=O)[C@H]2[C@@H](c3ccc(Br)cc3)N3C(=O)N(c4cccc(Br)c4)C(=O)[C@@]3(Cc3ccccc3)[C@H]2C1=O	5.8	-4.3	/	/	/
COc1ccc(-c2ccc3oc(-c4ccsc4)c(-c4ccc(OC)cc4)c3c2)cc1	1.9	1.4	/	/	9.6%
O=C(CSC1=NS(=O)(=O)c2cc(Cl)ccc2N1)c1ccc(Cl)cc1	-1.7	-10.4	/	/	/
CCC(=O)NC(=S)Nc1ccc(OC)cc1OC	3.0	-0.3	-4.5	-19.2	11.6%
Cc1cc(NC(=O)c2c(Cl)cnn2C)no1	1.2	12.2	13.1	-17.0	0.2%
O=C(O)c1ccc(N/N=C/c2ccc(C(F)(F)F)cc2)cc1	10.0	10.5	21.2	/	2.0%
CC1CN(c2cc(=O)n(Cc3ccc(F)cc3)c(=O)[nH]2)CC(C)O1 (centres undefined)	0.9	0.3	-3.2	/	1.6%	Arbovirus inh repeat=-1.8
Cc1ccc(N(Cc2cc3cc(C)ccc3[nH]c2=O)C(=O)c2cccs2)cc1	0.9	5.1	-0.9	-8.8	0.8%
CCn1c(SCC#N)nc2cc(S(=O)(=O)N3CCOCC3)ccc21	-1.5	-18.7	/	/	/
CC(=O)c1ccc(NC(=O)C(C)N(C)CC(=O)Nc2cccc(F)c2)cc1 (centres undefined)	-2.1	26.8	0.8	/	6.4%
CCCOC(=O)c1ccc(NC(=O)C2C3C=CC(O3)C2C(=O)O)cc1 (centres undefined)	1.4	98.3	-0.6	-9.9	35.2µM*	Arbovirus inh repeat=0.6
